# Screening results as filed in PubChem BioAssay.
# KCNQ2 block: KCNQ2 potassium channel inhibitors, primary screen, cell-based, CHO-K1, FluxOR thallium flux, B-score (AID 2156); 20 min; active compounds read low; only compounds with negative scores are shown here; some inactives read as strong as hits; B-score at 10 µM; 310,000 compounds, 1.1% hits;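 active = fluorescence ratio B-score at most minus 3 library SDs, with starting brightness B-score within 2 library SDs, cut at about -5.5 in these data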
# Target sequence (O88943 whole entry, looked up): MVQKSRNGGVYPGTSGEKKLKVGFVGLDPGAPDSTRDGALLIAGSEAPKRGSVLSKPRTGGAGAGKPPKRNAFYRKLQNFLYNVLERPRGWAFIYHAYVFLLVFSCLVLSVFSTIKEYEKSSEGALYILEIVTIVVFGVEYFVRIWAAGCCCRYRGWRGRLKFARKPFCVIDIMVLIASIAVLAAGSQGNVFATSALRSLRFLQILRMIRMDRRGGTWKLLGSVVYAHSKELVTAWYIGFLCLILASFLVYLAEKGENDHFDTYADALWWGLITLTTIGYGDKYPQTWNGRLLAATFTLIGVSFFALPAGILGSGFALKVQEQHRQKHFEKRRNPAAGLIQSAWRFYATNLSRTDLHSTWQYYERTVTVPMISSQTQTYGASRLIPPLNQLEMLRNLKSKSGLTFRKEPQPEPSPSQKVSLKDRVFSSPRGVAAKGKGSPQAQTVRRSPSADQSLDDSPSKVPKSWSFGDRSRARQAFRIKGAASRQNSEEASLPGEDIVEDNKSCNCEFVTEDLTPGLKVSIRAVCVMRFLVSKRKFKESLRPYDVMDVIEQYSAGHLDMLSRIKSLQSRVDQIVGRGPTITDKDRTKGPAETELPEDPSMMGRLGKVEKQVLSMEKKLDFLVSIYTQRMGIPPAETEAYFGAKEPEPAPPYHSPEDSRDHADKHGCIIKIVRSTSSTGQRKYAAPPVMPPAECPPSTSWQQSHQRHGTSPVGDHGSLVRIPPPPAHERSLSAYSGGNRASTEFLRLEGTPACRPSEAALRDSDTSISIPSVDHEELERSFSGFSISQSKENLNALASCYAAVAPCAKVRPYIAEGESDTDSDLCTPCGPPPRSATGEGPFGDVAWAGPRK
# KCNQ2 block baseline: also measured in KCNQ2 block; calls as there; B-score; measured here: initial fluorescence intensity artifact check;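 brightness before thallium and not channel activity; 0 = typical well and far values either way flag optical interference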
# An asterisk follows results filed as active; i = inactive.
SMILES,KCNQ2 block,KCNQ2 block baseline
COc1ccc(OC)c(S(=O)(=O)n2cccn2)c1,i,0.19
COc1ccccc1C(=O)NC(=O)Nc1c(C)cc(C)cc1C,i,-0.6
CC(C)=N/N=C(/c1ccc([N+](=O)[O-])cc1)C12CN3CN(CN(C3)C1)C2,i,-0.86
O=C(CN1C(=O)/C(=C/c2cccc(Br)c2)SC1=S)NC1=NCCS1,i,1.27
CCOC(=O)N1CCN(CC(=O)Nc2ccc(F)c(F)c2F)CC1,i,1.7
COc1ccc(CCNC(=O)c2ccccc2NC(=O)c2ccco2)cc1OC,i,0.46
O=C(CN1CCC(n2nnc3ccccc32)CC1)Nc1ccc2c(c1)CCC2,i,-1.42
CCOC(=O)CSc1nc2c(c(=O)n1-c1ccc(OCC)cc1)SCC2,i,0.73
O=C(O)c1ccc(Cn2cc(C(F)(F)F)ccc2=O)cc1,i,-0.11
COc1ccc(CCNC(=O)Cn2nc(C(=O)O)c3ccccc3c2=O)cc1OC,i,0.21
O=C(NCc1ccc2c(c1)OCO2)c1ccc2c(c1)C(=O)N(Cc1cccnc1)C2=O,i,-0.02
OC1COC(OCC2OC(OCc3ccccc3)C(O)C(O)C2O)C(O)C1O (configuration not stated),i,-0.29
COc1ccccc1C(=O)NCCn1cc(SCC(=O)NCC2CCCO2)c2ccccc21 (configuration not stated),i,1.39
Cc1nc(/C(N)=N/OC(=O)c2cccc(Cl)c2)c(C(F)(F)F)o1,i,-1.85
O=C1OC(Nc2ccc3c(c2)OCO3)c2ccccc21 (configuration not stated),i,0.78
Cc1ccc2[nH]c3c(=O)n(CCCN4CCOCC4)cnc3c2c1,i,0.53
Cc1ccc(S(=O)(=O)N(Cc2ccccc2)c2ccccc2C(=O)N2CCCCC2)cc1,i,-2.18
CC(C)CCOc1ccc(-c2c(=O)n(OCc3ccc([N+](=O)[O-])cc3)c3ccccc3[n+]2[O-])cc1,i,1.63
Cc1nc(C(=O)Nc2cccc(Cl)c2Cl)nn1-c1cc(OC(C)C)c(Cl)cc1Cl,-6.35*,0.75*
COc1cc(/C=C(\C#N)C(=O)N2CCc3ccccc32)ccc1O,i,1.57
Cc1cccc(NC(=O)c2cnc3scc(C)n3c2=O)c1,i,-0.52
O=C(Nc1ccccc1C(=O)NC1CCCCC1)c1ccccc1,i,0.02
COc1ccccc1C1CCCN1Cc1nc(-c2ccc(C)s2)oc1C (configuration not stated),i,0.07
Cc1ccc([C@@H]2C[C@H]3CN(Cc4cccc(Cl)c4)C(=O)[C@]34CCCN24)o1,i,-1.17
COc1ccc(CCn2nnc(-c3ccc(NC(C)=O)c(Cl)c3)n2)cc1,i,0.93

# Arranged by length of the SMILES (falling): some entries from above.
SMILES,KCNQ2 block,KCNQ2 block baseline
CC(C)CCOc1ccc(-c2c(=O)n(OCc3ccc([N+](=O)[O-])cc3)c3ccccc3[n+]2[O-])cc1,i,1.63
Cc1ccc([C@@H]2C[C@H]3CN(Cc4cccc(Cl)c4)C(=O)[C@]34CCCN24)o1,i,-1.17
CC(C)=N/N=C(/c1ccc([N+](=O)[O-])cc1)C12CN3CN(CN(C3)C1)C2,i,-0.86
Cc1nc(C(=O)Nc2cccc(Cl)c2Cl)nn1-c1cc(OC(C)C)c(Cl)cc1Cl,-6.35*,0.75*
COc1ccccc1C(=O)NCCn1cc(SCC(=O)NCC2CCCO2)c2ccccc21 (configuration not stated),i,1.39
COc1ccc(CCNC(=O)Cn2nc(C(=O)O)c3ccccc3c2=O)cc1OC,i,0.21
O=C(CN1C(=O)/C(=C/c2cccc(Br)c2)SC1=S)NC1=NCCS1,i,1.27
COc1ccc(CCn2nnc(-c3ccc(NC(C)=O)c(Cl)c3)n2)cc1,i,0.93
OC1COC(OCC2OC(OCc3ccccc3)C(O)C(O)C2O)C(O)C1O (configuration not stated),i,-0.29
CCOC(=O)CSc1nc2c(c(=O)n1-c1ccc(OCC)cc1)SCC2,i,0.73
COc1cc(/C=C(\C#N)C(=O)N2CCc3ccccc32)ccc1O,i,1.57
CCOC(=O)N1CCN(CC(=O)Nc2ccc(F)c(F)c2F)CC1,i,1.7
COc1ccccc1C1CCCN1Cc1nc(-c2ccc(C)s2)oc1C (configuration not stated),i,0.07
O=C(O)c1ccc(Cn2cc(C(F)(F)F)ccc2=O)cc1,i,-0.11
O=C(Nc1ccccc1C(=O)NC1CCCCC1)c1ccccc1,i,0.02
O=C1OC(Nc2ccc3c(c2)OCO3)c2ccccc21 (configuration not stated),i,0.78
COc1ccc(OC)c(S(=O)(=O)n2cccn2)c1,i,0.19

# (more compounds)
SMILES,KCNQ2 block,KCNQ2 block baseline
CC1CCN(C(=O)COC(=O)c2cc(Cl)cc(Cl)c2N)CC1,i,-0.22
COc1ccc(CCNC(=O)c2ccc(NS(=O)(=O)c3ccc4[nH]c(=O)[nH]c4c3)cc2)cc1,i,1.6
O=C(NNC(=O)c1ccc2[nH]c(=O)c(=O)[nH]c2c1)c1cccc(Br)c1,i,1.88
CCOc1ccc2nc(NC(=O)c3cnccn3)sc2c1,i,1.16
CCN(CC)c1cccc(OC2=NS(=O)(=O)c3ccccc32)c1,i,0.98
Cc1sc(NC(=O)COc2cccc(-n3cnnn3)c2)c(C#N)c1C,i,0.43
COc1ccc(NC(=O)CCCN2C(=O)CCC2=O)cc1Cl,i,-1.76
O=C(c1ccc(F)cc1)N1CCCC(c2ccccc2)C1 (configuration not stated),i,1.22
COc1ccc(OC)c(N(C(=O)c2snc(C(N)=O)c2N)C(C(=O)NCc2ccccc2)c2ccc(O)cc2)c1 (configuration not stated),i,-0.64
CC(C)Sc1ccc(C(=O)Nc2ccc(F)cc2F)cn1,i,-0.71
COCC(C)NC(=O)c1oc2c(c1C)C1(CCC2)SCCS1 (configuration not stated),i,0.18
CCc1nc(SCC(=O)Nc2ccccc2OC)c2c(C)c(C)sc2n1,-5.8*,-0.23*
COC(=O)c1cc(S(=O)(=O)C(C)C)c(S(C)=O)s1 (configuration not stated),i,0.7
Cc1cc(N2CCOCC2)c2c(N)c(Br)cc(C)c2n1,i,0.05
CCC(=O)N1CCc2cc(S(=O)(=O)NCCc3ccc(S(N)(=O)=O)cc3)ccc21,i,0.33
COC(=O)c1ccc(NC(=O)COc2cccc3c2OC(C)(C)C3)cc1,i,0.65
CCOC(=O)CC1(C)NC(=O)c2c(C)sc(C(=O)OCC)c2N1 (configuration not stated),i,1.26
CCOC(=O)C1=C(c2ccccc2)OC(N)=C(C#N)C1c1cccnc1 (configuration not stated),i,2.56
Cc1ccc(S(=O)(=O)Nc2cc3c4c(c2)CC(=O)N4CCC3)cc1,i,-0.67
CCOC(=O)c1c(NC(=O)CSc2ncn[nH]2)sc(C)c1C,i,0.86
CSc1nc2sc3c(c2c(=O)[nH]1)CC(C)(C)OC3,i,1.6
Cc1cc(NC(=O)CCCC(=O)NCc2ccccc2)no1,i,0.62
C=CCS(=O)(=O)N1CCCC(C(=O)c2cccc(Cl)c2)C1 (configuration not stated),i,-0.57
C=CCN(C(=O)CCC(=O)Nc1cc(C)on1)C(C(=O)NC1CCCC1)c1ccc(C)cc1 (configuration not stated),i,-1.51
Cc1ccc(NC(=O)CCNCc2ccco2)cc1S(=O)(=O)N(C)C,i,0.96
# Remaining list, next part
SMILES,KCNQ2 block,KCNQ2 block baseline
O=C(NCc1ccccc1Cl)C1CCCN1S(=O)(=O)c1ccc(F)cc1 (configuration not stated),-6.35*,-0.71*
COCCNC(=O)C(C)OC(=O)c1cc2sccc2n1C (configuration not stated),i,1.32
Cc1ccc(OCC(=O)NCC(=O)Nc2ccc(F)cc2)c([N+](=O)[O-])n1,i,1.31
CC(Oc1ccc2ccccc2c1)C(=O)NNC(=O)Nc1ccccc1F (configuration not stated),i,0.73
OCCNc1nc(Nc2cccc(O)c2)nc2ccccc12,i,-0.66
O=C(Nc1ccccc1)C1CCN(c2nccs2)CC1,i,-0.49
O=C(c1cccc(Cl)c1)N1CCC(N2CCC(C(=O)N3CCOCC3)CC2)CC1,i,1.54
CN(C)c1ccc(S(=O)(=O)N2CCCCC2)cc1NC(=O)C1=NN(c2ccccc2)C(=O)CC1,i,0.21
C=CCNC(=S)Nc1ccc2nsnc2c1,i,0.41
CCN(Cc1ccccc1)C(c1ccc(C)cc1)c1nnnn1C(C)(C)CC (configuration not stated),-8.77*,-1.08*
CCOC(=O)c1nn(-c2ccccc2)cc1O,i,-0.4
O=C(CSc1nnc(-c2ccc(F)cc2)o1)Nc1ccc(S(=O)(=O)N2CCCCCC2)cc1,i,-1.05
O=C(O)CCCNC(=O)Cc1ccccc1,i,-1.61
Cc1cc(NC(=O)c2ccc(Cn3nc(C)c(Br)c3C)o2)no1,i,-0.93
CCOc1ccccc1/C=C/c1nc2ccccc2[nH]c1=O,i,-0.13
CCOC(=O)Nc1cc(OCC)c(NC(=O)C2CC2)cc1OCC,i,2.3
Cc1cc(C(=O)N/N=C/c2cccnc2)c2ccccc2n1,i,0.03
Fc1cccc(C2NC(=S)NC3=C2N2CCC3CC2)c1 (configuration not stated),i,-0.62
CCCOc1ccccc1C(=O)NCCCC(=O)O,i,-0.6
CC(C)C(NC(=O)C(C)N1C(=O)c2ccccc2C1=O)c1ccccc1 (configuration not stated),i,-1.3
Cc1ccc(C(=O)NC2(C(Cl)Cl)N=C(c3ccccc3)N=C2N)cc1 (configuration not stated),i,0.4
Cc1cc(C)c2c(c1)/C(=c1/sc3n(c1=O)CN(c1ccccc1)CN=3)C(=O)N2,i,-0.87
O=C(CCN1C(=O)/C(=C\c2ccccc2)SC1=S)NNC(=O)c1ccccc1O,i,-0.88
Cc1ccccc1NS(=O)(=O)c1ccc(C(=O)N2CCCCCC2)cc1,i,1.12
Nn1c(SCC(=O)N2CCCc3ccccc32)nncc1=O,i,-1.73
# (further entries)
SMILES,KCNQ2 block,KCNQ2 block baseline
Cc1nc(-c2nnc(SCC(=O)Nc3cc(Cl)cc(Cl)c3)n2C)cs1,i,0.91
COc1ccc(S(=O)(=O)NCCc2ccc(F)cc2)cc1,i,-0.27
CCCN(Cc1ccccc1)C(=S)Nc1cccc(C(F)(F)F)c1,i,1.36
COc1cccc(C(=O)CSc2nccn2C)c1,i,1.02
O=C(NCCc1ccccc1)C1CCN(c2ncccn2)CC1,i,-0.03
COc1ccccc1N1CCN(C(c2ccccc2)c2nnnn2CCc2ccccc2)CC1 (configuration not stated),i,-0.05
Cc1ccc(N(CC(=O)NCc2ccc(F)cc2)S(=O)(=O)c2cccs2)cc1,i,1.99
CCn1c(=O)c([N+](=O)[O-])c(N2CCN(Cc3ccc4c(c3)OCO4)CC2)c2ccccc21,i,0.35
CCOC(=O)C1CCN(CCC(=O)Nc2ccc(C)cc2)CC1,i,-1.42
NC(=O)[C@@H]1CC2(CC(c3cccc(NC(=O)[C@@H]4CCC(=O)N4)c3)=NO2)CN1C(=O)Cc1ccc([N+](=O)[O-])cc1 (some centres not stated),i,-0.82
COc1ccc(C)cc1S(=O)(=O)Nc1ccc2c(c1)OCO2,i,1.34
CC(Sc1nc(NC(C)(C)C)nc(N(C)C)n1)C(=O)Nc1ccccc1 (configuration not stated),i,-1.11
C#CC(CC)(CC)NC(=O)c1ccc(Br)s1,i,-0.44
Cc1nc(CS(=O)(=O)c2ccccc2)cc(N2CCOCC2)n1,i,0.84
O=C(Cn1cnc2ccccc21)NCCCN1CCOCC1,i,1.02
NNC(=O)c1nc[nH]c1C(=O)Nc1ccccc1,i,0.39
CCN(CC)c1ccc(C(=O)N/N=C(\C)c2cccnc2)cc1,i,1.96
CCCNS(=O)(=O)c1ccc(OCC(=O)Nc2ccc3c(c2)OCCO3)cc1,i,2.85
O=C(CCc1nnc(-c2ccc(-c3ccccc3)cc2)o1)NCCc1ccccn1,i,0.31
Cc1[nH]n(-c2ccccc2)c(=O)c1C=NC1CCCCCC1,i,0.96
COc1cccc(CN(C)C(=O)CC23CC4CC(CC(C4)C2)C3)c1OC,i,0.31
O=C(CN1CCN(c2ccccn2)CC1)Nc1ccc2ccccc2c1,i,1.49
O=C1N2CCSC2=NC1(Nc1ccccn1)C(F)(F)F (configuration not stated),i,-0.22
O=C1c2ccccc2C(=O)C12OC(c1ccccc1)C1(C(=O)c3ccccc3C1=O)C2c1cccc([N+](=O)[O-])c1 (configuration not stated),i,-0.61
O=C(CSc1nnc(-c2ccco2)o1)c1ccccc1Cl,i,-1.32
# (list continues)
SMILES,KCNQ2 block,KCNQ2 block baseline
N#CC12C(N)=NC3(OCCO3)C1(C#N)C1=C(CCC1)NC2c1ccccc1 (configuration not stated),i,0.77
CCN(CC)CCNC(=S)Nc1ccc2nc(N3CCN(CC)CC3)cc(C)c2c1,i,-1.43
COC(=O)/C=C/c1cc(F)ccc1S(=O)(=O)NC(C)(C)C,i,-1.3
CN(Cc1cc2ccccc2[nH]c1=O)S(C)(=O)=O,i,-1.29
CCOC(=O)C1(Cc2cccc(OC)c2)CCN(Cc2cccc3cnccc23)CC1,i,-0.39
CCOCCCNC(=S)N1CCN(c2nc(-c3ccc(F)cc3)cs2)CC1,i,0.45
COc1ccc(S(=O)(=O)Nc2ccccc2-c2nnn(CC(=O)Nc3ccccc3OC)n2)cc1,i,0.18
COc1cccc(NC(=O)NC2CC(=O)N(c3ccc4c(c3)OCCO4)C2)c1 (configuration not stated),i,-0.06
CC(C)c1ccc(-n2cccc2/C=C2/C(=N)N3C=CSC3=NC2=O)cc1,i,0.4
Cc1ccc(-c2noc(CN3CCN(C(c4ccccc4)c4ccccc4)CC3)n2)cc1,i,0.24
CC(=O)Nc1ccc(S(=O)(=O)NCC2CCC(C(=O)N3CCCCCC3)CC2)cc1 (configuration not stated),i,-0.51
O=C(CN1C(=O)S/C(=C\c2ccc(F)cc2)C1=O)NCCCn1ccnc1,i,4.71
COc1c(Cl)ccc(Cl)c1C(=O)NC(=O)Nc1nc(C)cc(C)n1,i,-0.75
COc1cc(C(=O)NCCNC(=O)C2CCCNC2=O)cc(OC)c1OC (configuration not stated),i,0.56
Cn1c(CCN2CCCCC2)nc2cc(NC(=O)Nc3ccccc3)ccc21,i,0.17
O=C(O)c1cccc(-c2ccc(/C=N/Nc3nn[nH]n3)o2)c1,i,-0.42
O=C(NCc1ccccc1)c1c(O)c2cccc3c2n(c1=O)CCC3,i,-0.31
CC1Oc2ccccc2N(CC(=O)NCc2ccc3c(c2)OCO3)C1=O (configuration not stated),i,-0.81
Cc1nc2ccccc2c(=O)n1/N=C/c1ccccc1O,i,1.21

# These rows are one share of the data, so the mix of outcomes need not match the whole.
